Bioassay records deposited in PubChem by National Center for Advancing Translational Sciences (NCATS).
Menin MLL FP FL = displaces fluorescein MLL peptide from human menin; Fluorescence polarization, fluorescein-MLL peptide displacement from menin; FP activity change, % at 61.4 µM; 290,000 tested, under 10 active; inconclusive = falling polarisation curve, or a change in total fluorescence; inactive = total fluorescence flat and polarisation flat or rising; no compound was filed as active; the % refers to the polarisation; negative = inhibition;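 also: % of control where 0% means no effect; inhibitors lower the polarisation; unlabelled MLL peptide was the positive control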
TRPV1 PAM = human TRPV1 potentiation. Q8NER1. TRPV1-expressing cells, Fluo-8 calcium influx, capsaicin EC20 potentiation; host cell line not named in the record; control for the full effect not named in the record. potentiation, % at 8.33 µM. hit rate 0.02% among 320,000. AID 540277; active means potentiation above 80%; inconclusive means 30% to 80%; inactive means below 30%; also: 0% is about no effect
Target sequence (Q8NER1 whole entry, looked up): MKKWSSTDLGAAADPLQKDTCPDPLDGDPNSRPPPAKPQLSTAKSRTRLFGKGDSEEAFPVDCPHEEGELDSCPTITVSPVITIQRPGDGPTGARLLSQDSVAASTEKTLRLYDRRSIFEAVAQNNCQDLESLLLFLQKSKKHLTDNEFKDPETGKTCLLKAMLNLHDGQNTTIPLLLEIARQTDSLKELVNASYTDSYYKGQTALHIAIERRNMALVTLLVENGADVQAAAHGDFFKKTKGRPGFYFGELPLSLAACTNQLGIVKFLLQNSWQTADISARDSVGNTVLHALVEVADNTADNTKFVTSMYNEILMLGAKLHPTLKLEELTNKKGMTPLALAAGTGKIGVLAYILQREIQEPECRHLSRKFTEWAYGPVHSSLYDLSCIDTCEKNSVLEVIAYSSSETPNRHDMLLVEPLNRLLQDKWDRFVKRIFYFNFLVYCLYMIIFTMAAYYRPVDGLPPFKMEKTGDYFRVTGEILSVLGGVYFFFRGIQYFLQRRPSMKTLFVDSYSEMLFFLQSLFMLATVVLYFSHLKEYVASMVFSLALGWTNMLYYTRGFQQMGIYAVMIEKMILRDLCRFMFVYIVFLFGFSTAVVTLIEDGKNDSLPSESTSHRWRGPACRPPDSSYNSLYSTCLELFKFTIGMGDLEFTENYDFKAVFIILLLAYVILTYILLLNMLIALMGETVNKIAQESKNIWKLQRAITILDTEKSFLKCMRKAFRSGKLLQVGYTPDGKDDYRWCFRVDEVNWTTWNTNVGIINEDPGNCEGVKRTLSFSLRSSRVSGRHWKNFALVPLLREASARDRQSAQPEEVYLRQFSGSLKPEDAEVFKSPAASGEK
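Fluo-8 calcium influx in TRPV1-expressing cells, kinetic read (ex 480/em 520 nm). Compound added and read 3 min for agonist activity, followed by capsaicin at EC20 final and 2 min further read for enhancement.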
TRPML1 blocker = blocks the human TRPML1 channel; AID 624415; hit rate 0.02% among 390,000; activity change, negative = inhibition, % (test concentration not listed); Q9GZU1; TRPML1-inducible cells, Ca2+ dye fluorescence, FDSS; hits give low values; inhibition of EC80 agonist-evoked calcium signal; in the data active means activity change below about -50%; inconclusive means about -30% to -50%; inactive means above about -30%;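 also: stimulus is agonist 54-4 at its EC80 concentration; % is scaled to controls: 0 for no effect and ±100 for the full control effect; compound concentration not given in the record; the text of the record puts the active cut at -80%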
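Tet-induced TRPML1-DL cells loaded with Ca8 no-wash calcium dye were read kinetically on FDSS. Compound addition was followed by EC80 agonist 54-4 (4 uM final); inhibition was read over 110 s.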
PINK1 expr mod = modulators of PINK1 expression; PINK1 immunofluorescence, high-content cytometry, 24 h; Potency, µM (doses to about 76.6 µM), for inactives: at the top dose activation (PINK1 increase), most hits filed as activators; AID 624263; hit rate 0.2% among 410,000; active = well fitted activation curve with a large enough effect; inconclusive = small, poorly fitted or top-dose-only effect; inactive = flat fitted curve, though single readings scatter; cell line not stated here;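 also: potency is read from the fitted curve at half-maximal effect; % of control where 0% means no effect; nearly all actives have a fitted effect of over 65% in size; a mitochondrial uncoupler was the plate control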
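Fluorescence from anti-PINK1 antibody, together with nuclear and cell stains, was scanned on a laser-scanning cytometer. Before staining, stable-line cells were incubated 24 hours with compounds at 5 concentrations; primary antibody 12 h at 10 degrees C.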
Sfp inh = inhibitors of Bacillus subtilis Sfp phosphopantetheinyl transferase | Q9F4F7 | AID 1490 | Biochemical Sfp PPTase activity, qHTS | Potency, µM, inactives show max response, negative = inhibition, usual class: inhibitors | hit rate 3.5% among 310,000; active = well fitted inhibition curve with a large enough effect; inconclusive = small, poorly fitted or top-dose-only effect, or another doubt; inactive = no such curve, though single readings can be large or run the other way;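 also: the enzyme is Sfp with the accession as filed and its product quenches rhodamine fluorescence; potency is read from the fitted curve at half-maximal effect; 0% = enzyme reaction without inhibitor and -100% = no enzyme wells; top concentration of the series not given in the record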
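Reaction rates are the 30-min fluorescence difference (ex 525, em 598 nm) in wells containing 15 nM Sfp, 5 uM rhodamine-CoA and 12.5 uM BHQ-2-YbbR at pH 7.6 with 10 mM MgCl2.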
ClpP mod = qHTS Assay for Activators of ClpP; ATP-dependent Clp protease proteolytic subunit (Bacillus subtilis (strain 168)), P80244; purified B. subtilis ClpP, FRET peptide cleavage, 20 min; Potency, µM (series often up to 57.5 µM), inactives show at the top dose activity change, negative = active; hit rate 1.9% among 340,000; AID 651965, 2013; active = well fitted falling curve with a large enough effect; inconclusive = small, poorly fitted or top-dose-only effect; inactive = no such curve, though single readings can be large or run the other way; also: potency is read from the fitted curve at half-maximal effect; the source files actives as falling curves though it sought activators and does not explain the sign; nearly all actives have a fitted effect of over 65% in size; many hits overshoot -100%
Target sequence (P80244 whole entry, looked up): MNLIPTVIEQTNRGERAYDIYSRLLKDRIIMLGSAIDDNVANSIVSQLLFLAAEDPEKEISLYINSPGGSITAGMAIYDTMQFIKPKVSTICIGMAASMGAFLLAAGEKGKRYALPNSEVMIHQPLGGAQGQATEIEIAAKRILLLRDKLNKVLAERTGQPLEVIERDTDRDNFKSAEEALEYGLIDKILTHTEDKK
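Purified B. subtilis ClpP, 10 microg/mL final in Tris/HCl pH8 with KCl, BSA, glycerol and Tween-20, cleaved an Abz/nitrotyrosine-quenched decapeptide. Fluorescence (ex 320, em 430) was read at 0 and 20 min at room temperature. Delta was normalized to 5.8 microM ADEP and DMSO/no-enzyme controls.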
TRPML1 agonist = activates the human TRPML1 channel. activation, % (test concentration not listed). hit rate 0.12% among 410,000. Q9GZU1. TRPML1-expressing cells, Ca2+ dye fluorescence, FDSS; host cell line not named in the record; reference of the full effect not given here; in the data active = activation above about 50%; inconclusive = about 30% to 50%; inactive = below about 30%; also: 0% is about no effect; the text of the record puts the active cut at 80%
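Cells: TRPML1-DL, 1X Tet inducer, ~16 h at 37 degrees C/5% CO2. Dye: ABD Ca8 no-wash + quencher, 45-90 min RT. Read: 10 s baseline, compound add, 110 s agonist phase; 54-4 EC80 (4uM final), 110 s antagonist phase.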
Numbers without * were called inactive; u = inconclusive; x = no result given; [ ] = remark or other dose. No enrichment for hits, and some 4.4% of all compounds hit somewhere here.

SMILES	Menin MLL FP FL	TRPV1 PAM	TRPML1 blocker	PINK1 expr mod	Sfp inh	ClpP mod	TRPML1 agonist
CCOC(=O)CNC(=O)C1(NC(=O)CNC(=O)OCc2ccccc2)CCCC1	x	x	9	3.1%	x	0.9%	0.8
O=C(CN1C(=O)NC2(CCCC2)C1=O)N1CCc2ccccc2C1	-1.5	5	11	4.4%	8%	x	-0.7
CCCc1nnc(NS(=O)(=O)c2ccc(OC)cc2)s1	-3.3	-2	-1	-0.4%	u	x	0.5
O=C(O)Cn1nnc(-c2ccccc2)c1COc1ccccc1	x	x	x	0.2%	x	-2.1%	-0.5
COc1ccc(C(C#N)=C2C=CC(=NO)c3ccccc32)cc1	x	x	x	1.4%	x	1.7%	-0.5
CCOc1ccc2noc3c2c1C(=O)c1ccccc1-3	u	-13	-1	-1.8%	u	-0.2%	2.2
O=C(CSCc1ccccc1)N/N=C/c1ccc(OCC(=O)N2CCCCC2)cc1	0.1	20	46	1.8%	8%	-0.8%	0.9
O=C(NC1CCCC1)C1=COCCO1	4.2	-2	0	1.9%	15%	-0.6%	-0.3
COC(=O)C1=C(C)NC2=C(C(=O)CC(C)(C)C2)C1c1ccsc1 (stereo not drawn)	2.4	4	-14	-2.1%	2%	28µM*	1.0
CCCCCOC(=O)C(C)c1c(C)[nH]c(=S)[nH]c1=O (stereo not drawn)	2.5	-25	19	2.6%	11%	-1.3%	-0.7

Look-ups from the entries so far:
`COc1ccc(C(C#N)=C2C=CC(=NO)c3ccccc32)cc1` | ClpP mod = 1.7%
`O=C(CN1C(=O)NC2(CCCC2)C1=O)N1CCc2ccccc2C1` | PINK1 expr mod = 4.4%

Carrying on.
SMILES	Menin MLL FP FL	TRPV1 PAM	TRPML1 blocker	PINK1 expr mod	Sfp inh	ClpP mod	TRPML1 agonist
CCC(=O)c1ccc(OC(=O)/C=C/c2cc(OC)c(OC)c(OC)c2)cc1	2.9	-7	1	-1.0%	-29%	x	0.5
COc1ccc(C)cc1NC(=O)C(C)N1CCOCC1 (stereo not drawn)	-5.9	-7	-16	0.8%	3%	x	0.2
Cc1ncc([N+](=O)[O-])n1S(=O)(=O)c1cc(Br)ccc1Br	0.2	-4	0	2.4%	10%	-3.0%	-0.2
O=[N+]([O-])c1cc2c(cc1/C=N/Nc1nc(Nc3ccccc3)nc(N3CCCCC3)n1)OCO2	0.5	x	2	-0.3%	22%	1.4%	2.1
O=C(CCC1CCCN(C(=O)Cn2cnnn2)C1)NCc1ccccc1F (stereo not drawn)	-0.1	1	-4	2.0%	16%	-0.8%	-0.4
COC(=O)COc1ccc2c(-c3ccc(OC)cc3)cc(=O)oc2c1	1.0	-5	-6	3.2%	12%	u	1.5
COc1ccc(C2C(C(=O)O)CCC(=O)N2c2ccc(C)cc2)cc1OC (stereo not drawn)	3.5	13	12	-0.9%	-5%	x	0.9
O=C(CC1C(=O)NCCN1CC1CCCCC1)NCCCN1CCOCC1 (stereo not drawn)	-8.7	0	-13	-3.5%	1%	-3.1%	0.6
COc1ccc(C(c2nnnn2CS(=O)(=O)c2ccc(C)cc2)N2CCN(Cc3ccccc3)CC2)cc1 (stereo not drawn)	x	x	2	0.9%	x	-0.1%	-0.9
CN(c1ncnc2c1c(-c1ccccc1)cn2-c1cccc(Cl)c1)C1CCCCC1	x	x	53	4.0%	x	-18%	0.0
CCOC(=O)/C(C#N)=C1/C=Nc2ccccc2N1	26	-6	17	-9.4%[38.3 µM]	11%	-0.9%	1.3
Cc1ccc2oc(=O)c3cc(C(=O)N4CCN(c5ccccc5)CC4)sc3c2c1	x	x	-14	-0.3%	x	1.2%	-0.9
CN(C(=O)c1ccc(NC(=O)Cc2cccc(NC(=O)C3CCN(C(=O)C4CCCC4)CC3)c2)cc1)C1CC1	x	x	0	-0.2%	x	0.1%	1.6
CC(C)n1c(SCc2ccc(Cl)cc2)nc2c1c(=O)[nH]c(=O)n2C	-0.3	u	-16	3.9%	6%	-2.9%	2.1
CCOC(=O)C(NC(=O)CCC(=O)Nc1ccc(S(N)(=O)=O)cc1)C(O)c1ccccc1 (stereo not drawn)	-1.9	3	20	1.5%[38.3 µM]	13%	1.0%	0.0
O=C(O)c1ccoc1CN1CCCCC1	2.0	2	-10	x	11%	0.1%	-0.4
COc1cc(Cl)cc(C(=O)O)c1OCC(=O)O	4.2	-11	32	-0.7%	9%	x	1.0
CC(C)C(C(=O)NCc1ccco1)N(C(=O)CNS(=O)(=O)c1ccccc1)c1ccccc1 (stereo not drawn)	-2.1	-1	8	-1.4%	14%	x	-0.5
Cc1cc(S(=O)(=O)N2CCCC2)ccc1OCC(=O)N1CCOCC1	-2.1	-13	3	-8.0%[38.3 µM]	9%	-1.6%	0.7
CC1(C)CC(CC(=O)NNc2nc(-c3ccccc3)cs2)C(=O)O1 (stereo not drawn)	2.1	21	37	-1.5%	5%	0.3%	0.2
Fc1cccc(CSc2ncnc3c2ncn3C2CCCCO2)c1 (stereo not drawn)	x	x	2	4.6%	x	x	2.3
CCOc1ccccc1NC(=O)Nc1nnc(N2CCCCCC2)s1	x	x	1	1.9%	x	0.8%	-0.6
Fc1ccc(-n2nc(-c3ccccc3)c3cnc4ccccc4c32)cc1Cl	x	x	-27	0.8%	x	1.4%	0.5
COCCNC(=O)CSc1nc2sccc2c(=O)n1-c1ccccc1	8.3	2	23	0.6%	-4%	x	0.2
COc1ccc(-c2sc3ccccc3c2-c2ccc(OCCN3CCOCC3)cc2)cc1	x	x	2	0.5%	x	3.4%	2.3
COc1cccc(NC(=O)CSc2nnc3scc(-c4ccc(Cl)cc4)n23)c1	x	x	7	-1.4%	x	-7.4%	5.3
COCC(=O)N1CCC(Oc2ccc(C(=O)N3CCCCC3COC)cc2)CC1 (stereo not drawn)	-6.4	4	-5	-0.3%	6%	-2.0%	-0.8
CCCCOC(=O)c1ccc(NC(=O)c2csnn2)cc1	x	x	9	-1.2%	x	-1.4%	-0.4
CCCn1c(SCC(=O)NC2CCCC(C)C2C)n[nH]c1=O (stereo not drawn)	-1.1	-4	13	2.8%	2%	-1.6%	-0.2
CC(C)NC(=S)N(C)C1(c2ccccc2Cl)CCCCC1=O (stereo not drawn)	7.5	9	7	0.8%	13%	0.0%	0.2
CC12CC3(C)CC(C)(C1)CC(C(=O)Nc1nn[nH]n1)(C2)C3	4.5	7	3	-2.6%[38.3 µM]	15%	4.0%	-0.1
CCCOC(=O)CSc1nnc(-c2ccccc2)o1	x	x	-6	-1.6%	x	-0.5%	1.2
COc1ccc(CC(=O)Nc2ccccc2-c2ccccc2)cc1OC	-1.5	-11	-11	-1.5%	1%	0.0%	-0.9
COc1ccccc1OCC(=O)Nc1ccc(O)cc1C(=O)O	-0.9	9	5	-3.7%	25%	u	0.8
O=C(NCC(c1ccco1)N1CCN(c2ccc(F)cc2)CC1)c1ccco1 (stereo not drawn)	x	-2	6	-1.3%	x	-2.8%	0.3
CCC(C)(C)c1nnc(NC(=O)c2ccc([N+](=O)[O-])cc2)s1	1.2	-15	11	1.9%	19%	-2.2%	-0.2
COc1ccc(CCNC(=O)COC(=O)/C=C/c2cccs2)cc1OC	-0.7	3	4	2.8%	-8%	-15%	0.6
COCCNC(=O)C(OC(=O)c1cccs1)c1ccc(F)cc1 (stereo not drawn)	3.8	1	-14	0.5%	14%	-0.4%	0.8
COc1ccccc1N1CCN(c2ncnc3c2c(-c2ccccc2)cn3-c2cccc(C)c2)CC1	x	x	-2	0.9%	x	11µM*	2.8
CC(=O)c1c(C)[nH]c(C(=O)N(C)C(c2ccccc2)c2ccccc2)c1C	-4.2	2	2	0.3%	-1%	x	0.6
O=C1OCCC1Sc1nnc(-c2cccs2)n1Cc1ccccc1 (stereo not drawn)	-0.9	-15	7	8.2%[38.3 µM]	-8%	5.5%	1.3
COc1cccc(NC(=O)c2ccco2)c1	6.2	29	-5	-0.9%	13%	-2.7%	-0.5
COc1cccc(C(=O)Nc2ccccc2C(=O)N2CCCC2)c1	2.9	11	-2	0.2%	10%	0.2%	2.2
Cc1ccc(CNC(=O)Cn2nc(C)n3cccc3c2=O)cc1	x	x	15	1.2%	x	0.9%	-0.2
O=C(COC(=O)c1ccc(Oc2ccccc2)cc1)Nc1nnc(-c2ccccc2)o1	5.4	7	6	1.1%	7%	-7.3%	0.8
CCN(CCNC(=O)C1CC(=O)N(CCc2ccccc2)C1)c1ccccc1 (stereo not drawn)	4.3	5	-4	-1.6%	1%	-0.8%	-0.5
CN1CC(=O)N(CC(=O)NCc2ccc(F)cc2)c2ccccc2C1=O	2.3	-14	-9	-0.3%	8%	0.0%	-0.7
COc1ccc(Cl)cc1C(=O)Nc1cccnc1	-0.1	-5	15	0.0%	3%	1.7%	0.1
COc1ccc(/C=C/C(=O)NNC(=O)c2cc(C)oc2C)cc1	x	17	-15	-1.2%	x	-11%	-0.4
CCOC(=O)c1sc(NC(=O)c2cc3c(C)nn(-c4ccccc4)c3s2)nc1C	-2.5	-16	x	x	11%	x	x

Further entries follow:
SMILES	Menin MLL FP FL	TRPV1 PAM	TRPML1 blocker	PINK1 expr mod	Sfp inh	ClpP mod	TRPML1 agonist
CC(=O)N1CCC(=NNc2ccc(S(N)(=O)=O)cc2[N+](=O)[O-])CC1	3.5	2	9	0.3%	11%	x	-0.3
CN1C(=O)[C@@H]2[C@H](C1=O)[C@@H]1C(=O)Nc3ccccc3C(=O)N1[C@@H]2c1ccc(Br)cc1	x	-17	-7	-0.6%	x	-1.0%	-0.7
Fc1ccc(-n2ncc3c(N4CCN(c5ccccc5F)CC4)ncnc32)cc1	x	x	-11	0.5%	x	-5.7%	0.1
Cc1ccccc1NC(=O)NC1(C(=O)N2CCCC2)CCCCC1	0.5	5	-4	1.4%	16%	0.3%	-0.2
N#Cc1ccccc1OCC(=O)NCc1ccccc1CN1CCCC1	x	-11	8	-0.2%	x	-12%	0.3
CCOC(=O)C1CCN(C(=O)CN2C(=O)CSc3ccc(S(=O)(=O)N4CCOCC4)cc32)CC1	x	6	0	-1.0%	22%	0.1%	-0.2
CC12CCC(=O)N1C(C(=O)Nc1ccc(Cl)c(Cl)c1)CS2 (stereo not drawn)	x	-16	25	6.6%	x	x	-0.7
